# High-throughput results as filed in PubChem BioAssay.
# Vif A3G = inhibitors of Vif binding to APOBEC3G peptide, primary screen, biochemical, TR-FRET, GST-Vif 1-94, biotin-A3G peptide, dose response retest (AID 1117319) | hit rate 0.57% among 260,000 | inhibition, %, or IC50 in µM where a hit was titrated | TR-FRET GST-Vif / biotin-A3G peptide binding; higher % means a stronger effect; test concentration not given here; strong numbers were not always called active;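 active means above the screen mean plus three standard deviations and confirmed in dose response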;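 further: Vif residues 1-94 fused to GST binding biotinylated APOBEC3G peptide 110-148; 0% = full assay without inhibitor and 100% = GST in place of GST-Vif; retest series ran down from 100 µM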
# ALR inh = blocks human ALR sulfhydryl oxidase activity. purified ALR, DTT oxidation, H2O2 HRP-luminol luminescence. inhibition, % (test concentration not listed). hit rate 3.8% among 290,000;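 active means mean and each replicate at 75% or more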;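 further: stock transfer was 7.5 nL into about 7.5 µL; 0% = neutral wells and 100% = wells with inactivated enzyme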
# Target sequence (P55789 whole entry, looked up): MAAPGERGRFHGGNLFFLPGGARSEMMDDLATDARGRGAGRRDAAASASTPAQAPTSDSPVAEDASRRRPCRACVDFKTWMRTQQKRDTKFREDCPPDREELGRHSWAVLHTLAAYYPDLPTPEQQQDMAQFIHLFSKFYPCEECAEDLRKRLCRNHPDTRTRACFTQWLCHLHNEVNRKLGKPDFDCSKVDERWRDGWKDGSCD
# Ecoli rRNA inh = inhibits bacterial ribosomal RNA function over humanized ribosomes | E. coli WT GFP vs humanized-ribosome RFP mutants, fluorescence, 24 h; stronger effect = lower value; DMSO median 0, no signal -100 | hit rate 1.6% among 350,000 | GFP signal change (wild-type ribosome), % (no concentration beside the values) | AID 720706;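 active means significant combined selectivity score with lowered wild-type GFP, culture density cut under 30%, mutant RFP and density less affected; inactive means any of these conditions unmet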; further: one replicate is shown; some compounds called inactive have numbers as strong as hits
# HNF4A DNA FP = change in binding of human HNF4 alpha to DNA | activity change, % at 10 µM | hit rate 0.3% among 360,000 | HNF4a-FITC DNA binding, fluorescence polarization, 1 h; in the data active means activity change above about 30%, passing the limit was not always enough;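 further: controls were the assay level and a saturating level of protein; the project sought stronger binding though the title names inhibitors; some compounds called inactive have numbers as strong as hits; positive values seem to mean higher polarization but the record does not say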
# Target sequence (P41235 whole entry, looked up): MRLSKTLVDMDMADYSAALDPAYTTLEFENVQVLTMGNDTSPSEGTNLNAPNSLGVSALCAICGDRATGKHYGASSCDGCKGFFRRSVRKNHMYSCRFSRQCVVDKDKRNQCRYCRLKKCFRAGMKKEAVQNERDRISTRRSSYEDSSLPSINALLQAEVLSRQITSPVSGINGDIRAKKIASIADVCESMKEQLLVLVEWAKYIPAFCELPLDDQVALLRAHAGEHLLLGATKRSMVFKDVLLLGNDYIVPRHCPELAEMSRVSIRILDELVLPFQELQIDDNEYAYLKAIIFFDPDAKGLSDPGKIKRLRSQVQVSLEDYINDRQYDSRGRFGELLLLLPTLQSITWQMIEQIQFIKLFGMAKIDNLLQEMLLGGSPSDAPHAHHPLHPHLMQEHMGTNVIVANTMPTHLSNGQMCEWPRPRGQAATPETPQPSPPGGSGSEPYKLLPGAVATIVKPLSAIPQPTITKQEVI
# MLL AF4-AF9 inh = blocks AF4 peptide binding to human AF9. P42568. AlphaScreen, biotin-AF4 peptide binding to FLAG-AF9. inhibition, % at 10 µM. hit rate 0.47% among 350,000. AID 651704;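 active means every replicate reaching a set inhibition limit, whatever the replicate mean, cut at about 25% in these data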;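 further: 0% = plate neutral control median and 100% = total signal loss; the record names both 10 and 1 µM as test concentration; the first replicate is given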
# Ecoli growth = inhibitors of Escherichia coli growth | OD600 absorbance (test concentration not listed) | hit rate 0.21% among 330,000 | OD600, 23 h; stronger effect = lower value;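 active means OD600 absorbance below the run mean of sample wells minus 3.6 SD, in any replicate, cut at about 0.56 in these data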;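 further: stock transfer was 300 nL into about 60 µL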
# FGF22 binding = binders of recombinant human FGF22 by thermal shift | Q9HCT0 | SYPRO orange fluorescence; percent of sucrose octasulfate shift, DMSO zero | calls only at 9.99 µM | hit rate 1.5% among 340,000 | AID 651658;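 active means melting point raised past a set limit in the mean and every replicate; three in four hits are not shown here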
# Target sequence (Q9HCT0 whole entry, looked up): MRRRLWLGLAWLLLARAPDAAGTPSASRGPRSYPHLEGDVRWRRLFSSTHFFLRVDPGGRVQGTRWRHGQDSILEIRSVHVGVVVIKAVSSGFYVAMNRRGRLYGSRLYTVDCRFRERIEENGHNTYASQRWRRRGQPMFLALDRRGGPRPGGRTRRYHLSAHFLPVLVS
# Ecoli rRNA inh OD600 = second read-out of Ecoli rRNA inh, no call of its own (marks repeat the call); OD600 change, %; measured here: OD600 growth;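 optical density of the mix in the first replicate; 0 = DMSO median and -100 = no signal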
# Ecoli rRNA inh RFP = further read-out of Ecoli rRNA inh, marked with its call; RFP signal change, %; measured here: RFP humanized mutant strains;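 first replicate; 0 = DMSO median and -100 = no signal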
# Starred values were filed as active, the others as inactive; i = inactive; · = not tested or not shown; + = active, no number; & = joins results of further samples. This is a subset, so the mix of outcomes need not match the whole.
Vif A3G	ALR inh	Ecoli rRNA inh	Ecoli rRNA inh OD600	Ecoli rRNA inh RFP	HNF4A DNA FP	MLL AF4-AF9 inh	Ecoli growth	FGF22 binding	smiles
8%	-2	-11	-20	-1.3	3.1	6.8	0.69	i	CNC(=S)NCCC(c1ccccc1)c1ccccc1
·	·	2	3	-0.9	·	-2.5	·	i	CCCN1C[C@H](C)[C@H](OC)CN(C)C(=O)c2cc(NC(=O)C3CC3)ccc2OC[C@H]1C
12%	81*	·	·	·	-2.2	·	0.66	·	CCn1cnc2sc(C(=O)N3CCN(c4ccc(OC)cc4)CC3)c(C)c2c1=O
·	·	3	-8	2.1	·	-2.7	·	i	Cc1ccc(S(=O)(=O)N(C)C[C@@H]2Oc3ccc(NS(=O)(=O)c4c(C)noc4C)cc3C(=O)N([C@H](C)CO)C[C@@H]2C)cc1
·	·	-1	7	-0.9	·	0.6	·	i	O=C(C[C@H]1CC[C@@H](NC(=O)c2cnccn2)[C@@H](CO)O1)NCc1ccccc1F
·	·	0	5	-2.3	·	-17	·	i	CC(C)NC(=O)Nc1ccc2c(c1)C(=O)N([C@H](C)CO)C[C@H](C)[C@H](CN(C)Cc1ccncc1)OCCCC[C@@H](C)O2
2%	-1	·	·	·	-5.5	·	0.72	·	O=C(NC(=S)N1CCN(C(c2ccccc2)c2ccccc2)CC1)c1ccc(S(=O)(=O)N2CCOCC2)cc1
-4%	-1	-3	-7	8.4	-3.4	13	0.67	i	Cc1cc(N2CCN(C)CC2)nc2ccc(NC(=O)CCC3CCCC3)cc12
-25%	·	·	·	·	8.5	·	0.76	·	Cc1cc(C)n(-c2ccc(C(=O)Nc3sccc3C(N)=O)cc2)n1
·	·	-5	3	2.1	·	6.7	·	i	OC[C@@H]1[C@H](c2ccc(-c3ccc(F)cc3)cc2)[C@H]2CN(Cc3ccccn3)CCCCN12
·	27	0	-8	-3.2	-4.2	3.8	0.69	i	CCc1sc(C(C2C(=O)CC(C)(C)CC2=O)C2C(=O)CC(C)(C)CC2=O)cc1[N+](=O)[O-]
·	·	3	3	0.2	·	8.9	·	i	COc1ccc(CN(C)C[C@H]2Oc3c(NC(=O)c4nc5ccccc5s4)cccc3C(=O)N([C@@H](C)CO)C[C@@H]2C)cc1
·	·	5	5	-0.2	-0.2	-8.5	0.65	i	Cc1ccc(OCC(=O)NCCNC(=O)c2ccc(C)nc2)cc1
-2%	0	-1	-1	-0.9	1.5	-1.3	0.71	i	CC1(c2ccc(Cl)cc2)NC(=O)N(CC(=O)N2CCN(S(=O)(=O)c3ccccc3)CC2)C1=O (centres undefined)
-4%	·	-14	-33	-3.7	0.1	0.3	·	i	NC(CSC1(c2cccc3ccccc23)c2ccccc2-c2ccccc21)C(=O)O (centres undefined)
-8%	-1	6	3	-0.2	2.5	-0.9	0.68	i	O=C(Nc1ccc(S(=O)(=O)Nc2ncccn2)cc1)c1ccccc1
6%	-1	·	·	·	-1.6	·	0.76	·	CCOC(=O)c1nn(-c2ccccc2)c(-c2ccccc2)c1C(=O)c1ccccc1
0%	-4	-7	-12	25	-6.4	-1.2&-1.6	·	i	C#CCNC(=O)C1=C[C@@H](c2csc3ccccc23)[C@H](CCCO)[C@@H](OCC)O1
24%	75	·	·	·	-0.7	·	0.69	·	NC(=O)Cc1c[nH]c2cccc(O)c12
·	-1	-33	-30	-3.0	-1.8	-1.2	0.73	i	O=C(Nc1nc(-c2ccc(F)cc2)cs1)c1cccc(N2C(=O)CCC2=O)c1

# Looked up one by one from the list above (three):
Vif A3G	ALR inh	Ecoli rRNA inh	Ecoli rRNA inh OD600	Ecoli rRNA inh RFP	HNF4A DNA FP	MLL AF4-AF9 inh	Ecoli growth	FGF22 binding	smiles
8%	-2	-11	-20	-1.3	3.1	6.8	0.69	i	CNC(=S)NCCC(c1ccccc1)c1ccccc1
12%	81*	·	·	·	-2.2	·	0.66	·	CCn1cnc2sc(C(=O)N3CCN(c4ccc(OC)cc4)CC3)c(C)c2c1=O
·	27	0	-8	-3.2	-4.2	3.8	0.69	i	CCc1sc(C(C2C(=O)CC(C)(C)CC2=O)C2C(=O)CC(C)(C)CC2=O)cc1[N+](=O)[O-]

# Later entries
Vif A3G	ALR inh	Ecoli rRNA inh	Ecoli rRNA inh OD600	Ecoli rRNA inh RFP	HNF4A DNA FP	MLL AF4-AF9 inh	Ecoli growth	FGF22 binding	smiles
7%	·	5	5	-0.7	-5.7	-7.2	0.67	i	CC(C)C(NC(=O)c1ccccc1)C(=O)OCC(=O)N1CCCCC1 (centres undefined)
·	·	5	-1	-1.8	·	-6.8	·	i	CNC[C@@H]1OCCCC[C@@H](C)Oc2ccc(NS(=O)(=O)c3ccc(Cl)cc3)cc2C(=O)N([C@H](C)CO)C[C@@H]1C
·	·	4	13	-1.4	·	-2.8	·	i	C[C@@H]1CN([C@@H](C)CO)C(=O)c2cccc(NC(=O)c3ccncc3)c2O[C@H]1CN(C)S(=O)(=O)c1cn(C)cn1
8%	-2	·	·	·	1.3	·	0.69	·	O=[N+]([O-])c1cccc(-c2nc(-c3ccncc3)no2)c1
-7%	-19	16	2	3.0	-6.8	-1.3	0.7	·	Cc1ccc(C(=O)OCCn2cc(C#N)c(=O)[nH]c2=O)cc1
6%	·	·	·	·	-3.1	·	0.67	·	CC(C)=CCc1c(O)ccc(C(=O)Cc2ccccc2)c1O
·	-10	-1	-8	-1.9	0.2	-3.5	0.69	i	O=S(=O)(NCc1nc(-c2ccccc2)no1)c1ccc(F)cc1
4%	-17	·	·	·	1.8	·	0.71	·	COc1ccc(OCCC(=O)Nc2cc(C)on2)cc1
17%	·	·	·	·	1.9	-7.1	0.66	i	CC(=O)Nc1nc2c(s1)C(=O)NCC(C)(C)C2
-7%&-1%	99*	·	·	·	-3.0	·	0.72	·	CCCCN(CC)CCCNC(=O)CS(=O)(=O)Cc1nc(-c2cccc(OC)c2)oc1C
·	·	5	1	-1.5	-1.8	-2.2	0.7	i	Cc1ccc(S(=O)(=O)N2CCN(C(=O)CCC(=O)Nc3ccc(F)cc3F)CC2)cc1
-7%	-11	-9	-1	-7.7	1.6	0.4	0.68	i	Cc1[nH]cc(Br)c(=O)c1Oc1ncc(C(F)(F)F)cc1Cl
-1%	·	-8	-1	5.5	0.4	-6.2	0.7	i	COc1ccccc1Nc1n[nH]c(=S)s1
·	·	-7	-16	3.7	-4.0	10	·	i	CC1(C)CC(=O)C2=C(C1)OC1=C(C(=O)CC(C)(C)C1)C2c1cccc([N+](=O)[O-])c1
6%	-21	1	-2	0.9	-1.6	-0.1	0.67	i	CC(=O)Nc1ccc(NC(=O)CSc2nnnn2C2CCCCC2)cc1
·	-6	0	-7	4.5	-3.0	5.1	·	i	Cc1ccc(/C=N/NC(=O)CN(Cc2ccccc2)S(=O)(=O)c2ccc3c(c2)OCCO3)cc1
·	1	6	1	5.3	-3.1	5.1	0.7	i	CCc1cc2c(cc3c(=O)n(CC(=O)NCCCN4CCCCCC4)nc(CC)n32)s1
-6%	·	7	8	-2.1	-4.0	8.1	0.67	i	Cc1cccnc1NC(=O)c1ccc(OCC2CCCO2)cc1 (centres undefined)
9%	-6	-1	2	2.2	-1.8	-0.6	0.72	i	Cc1nn(C)c(C)c1S(=O)(=O)N1CCC(C(=O)NCCC2=CCCCC2)CC1
27%	2	·	·	·	3.3	·	0.72	·	CC(C)(C)C(=O)Nc1nnc(SCc2ccc(F)cc2)s1

# Later entries.
Vif A3G	ALR inh	Ecoli rRNA inh	Ecoli rRNA inh OD600	Ecoli rRNA inh RFP	HNF4A DNA FP	MLL AF4-AF9 inh	Ecoli growth	FGF22 binding	smiles
·	-5	-1	0	-1.0	-1.6	-2.6	0.7	i	O=C(Nc1ccc(F)cc1F)c1ccc(S(=O)(=O)NCc2ccco2)cc1
·	·	-3	-3	-4.3	7.3	3.5	0.71	i	Cc1c(NC(=O)/C(C#N)=C/c2ccc(-c3ccc(Cl)c(Cl)c3)o2)c(=O)n(-c2ccccc2)n1C
·	·	2	-5	5.1	·	3.3	·	i	C[C@H]1CN([C@@H](C)CO)C(=O)Cc2cc(NC(=O)Nc3ccc4c(c3)OCO4)ccc2O[C@H]1CN(C)S(=O)(=O)c1ccc(F)cc1
·	·	-2	0	0.4	·	3.8	·	+	COCC(=O)N(C)C[C@@H]1Oc2cc(C#Cc3ccccc3)ccc2S(=O)(=O)N([C@@H](C)CO)C[C@H]1C
·	·	-1	0	-0.5	·	-0.6	·	i	C[C@H](CO)N1C[C@H](C)[C@@H](CN(C)C(=O)c2cnccn2)Oc2ncc(C#CCC3CCCC3)cc2C1=O
21%	3	-12	-18	19	3.4	7.1	0.7	i	Cc1cc(C)c2nc(Cl)c(CN(Cc3ccco3)C(=O)Nc3ccccc3C)cc2c1
·	·	-4	-8	2.7	·	1.2	·	i	CCCCNC(=O)C[C@H]1C[C@@]2(C(=O)OC)C(=C[C@H](C(C)(C)C)O[C@@H]2C)N(Cc2ccccc2)C1=O
7%	-25	0	-5	11	-1.0	-24	0.7	·	COc1ccc(C(=O)NCCn2ccc3ccccc32)c(OC)c1
1%	-1	13	16	0.8	1.4	0.2	0.69	i	Cc1cc(C)n(CC(C)Nc2nc3nonc3nc2N2CCCCC2)n1 (centres undefined)
·	·	2	11	-1.4	·	-1.9	·	i	O=C(C[C@@H]1C[C@H]2c3cc(NC(=O)Cc4ccncc4)ccc3O[C@H]2[C@@H](CO)O1)NCc1ccc2c(c1)OCO2
0%&-1%	-3	-5	-8	-3.0	1.1	-3.1	0.78	i	COc1cc(Cl)c(S(=O)(=O)N2CCN(Cc3ccc4c(c3)OCO4)CC2)cc1Cl
·	·	-39	-56	8.3	2.0	23	·	i	O=C1CCC[C@@H]2[C@@H](Cc3ccccc3)[C@H](N3CCN(c4ccccc4)CC3)C[C@@H]3CCN1[C@@H]32
1%	·	·	·	·	1.6	·	0.76	·	O=[N+]([O-])c1ccc(OC/C=C2\Oc3ccc([N+](=O)[O-])cc3C2N2CCOCC2)cc1 (centres undefined)
17%	85*	·	·	·	0.0	·	0.69	·	Cc1noc(NS(=O)(=O)c2ccc(N/C=C/C(=O)c3ccccc3)cc2)c1C
2%	-43	-12	3	-2.2	3.6	-4.4	0.69	i	C#Cc1cccc(C(=O)NC2CCCN(C3Cc4ccccc4C3)C2)c1 (centres undefined)
19%	-11	·	·	·	-0.5	·	0.7	·	COc1ccc(OC)c(CN2C(=O)CCC2(C)C(=O)NC2CCCCCC2)c1 (centres undefined)
·	·	0	-1	-3.7	·	-8.6	·	i	O=C(C[C@@H]1C[C@@H]2c3cc(NC(=O)Nc4ccccc4F)ccc3O[C@@H]2[C@H](CO)O1)NCc1cc(F)ccc1F
-3%	-2	·	·	·	0.4	·	0.69	·	O=C(c1sc2ccccc2c1Cl)N1CCN(c2ccc(F)cc2)CC1
-5%	4	-26*	-13*	-2.2*	5.0	9.9	·	i	NC(=S)N/N=C\c1ccccc1OCc1ccccc1
·	-11	0	5	0.5	0.7	-4.9	0.77	i	O=C1COc2cc(S(=O)(=O)CCC(=O)N3CCCCC3)c(Cl)cc2N1
-2%	-3	3	11	-2.7	-7.0	-1.0	0.72	i	COc1ccc(NC(=O)CC(C(=O)O)C(C)c2ccccc2)cc1 (centres undefined)

# Structural class: the entries above containing an aryl thioether with sulfur outside any ring
Vif A3G	ALR inh	Ecoli rRNA inh	Ecoli rRNA inh OD600	Ecoli rRNA inh RFP	HNF4A DNA FP	MLL AF4-AF9 inh	Ecoli growth	FGF22 binding	smiles
6%	-21	1	-2	0.9	-1.6	-0.1	0.67	i	CC(=O)Nc1ccc(NC(=O)CSc2nnnn2C2CCCCC2)cc1
27%	2	·	·	·	3.3	·	0.72	·	CC(C)(C)C(=O)Nc1nnc(SCc2ccc(F)cc2)s1
